Compound activity deposited in PubChem BioAssay by several laboratories.
CBX7 AlphaScr = CBX7 inhibition, primary AlphaScreen; O95931; AlphaScreen His6-CBX7 / biotin-H3K27me3 peptide binding; active compounds read low; normalised signal (fraction of DMSO) (no concentration beside the values); actives 1.1% (n = 66,000); in the data active means normalised signal below about 0.5;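 further: 100 nL library stock added to about 20 µL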
Target sequence (O95931 whole entry, looked up): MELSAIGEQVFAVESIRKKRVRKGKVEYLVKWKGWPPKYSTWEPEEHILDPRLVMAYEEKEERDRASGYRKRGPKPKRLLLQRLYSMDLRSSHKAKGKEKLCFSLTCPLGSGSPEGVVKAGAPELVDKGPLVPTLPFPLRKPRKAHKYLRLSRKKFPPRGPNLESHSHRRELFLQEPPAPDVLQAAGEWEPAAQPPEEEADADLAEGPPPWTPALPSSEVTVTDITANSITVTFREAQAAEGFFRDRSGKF
CBX7 AlphaScr z-score = further read-out of CBX7 AlphaScr, marked with its call; z-score; measured here: z-score of CBX7 signal; some inactives read as strong as hits; reference of the scale not given here;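 same signal on another scale; lower means less binding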
* = called active by the depositor. The list is partial (hit frequency here may not be typical).

SMILES	CBX7 AlphaScr	CBX7 AlphaScr z-score
O=C(NCC1CCCO1)c1nn2c(c1Br)NC(c1cccs1)CC2C(F)(F)F (centres undefined)	1.2	1.5
Cc1ccc(S(=O)(=O)CCc2nnc(-c3ccccc3)o2)cc1	0.83	-2.2
O=C(c1ccc(F)cc1)N1CCc2c([nH]c3ccccc23)C1	0.94	-1.1
CCn1c(=O)cc(OCC(=O)Nc2cccc(Cl)c2)c2ccccc21	0.86	-2.3
CC1(C)CC(=O)C2=C(C1)NC(=O)CC2c1ccc(OCc2ccccc2)cc1 (centres undefined)	1.1	1.6
CCCCCNC(=O)c1c[nH]c2ccc(S(=O)(=O)N3CCc4ccccc4C3)cc2c1=O	0.98	-0.19
COc1ccc(N(CC(=O)Nc2ccc(C)c(C)c2)S(=O)(=O)c2c(C)nn(C)c2C)cc1	1.1	0.55
O=C(CSc1nccn1-c1cccc(Cl)c1)Nc1ccccc1C(F)(F)F	1.1	1.2
COc1ccc(-c2nc(CSCC(=O)NCCc3ccc(OC)c(OC)c3)c(C)o2)cc1	0.79	-0.83
Cc1ccn(-c2ccc3cc(-c4ccccc4)c(=O)oc3c2)n1	0.83	-2
O=C(CCn1nc(-c2ccccc2)ccc1=O)NC1CC1	0.99	-0.23
Cc1ccc(CNc2ccc3c(c2)nc(C)n3C)cc1	0.96	-1.7
Cc1onc(-c2c(Cl)cccc2Cl)c1C(=O)Nc1ccc(OCc2ccccc2)cc1	0.93	-0.46
COc1ccc(-c2[nH]c(-c3ccc(C(=O)O)cc3)nc2-c2ccccc2)cc1	0.75	-0.25
O=C(Nc1cccnc1)C1(c2ccccc2)CCCC1	0.96	-0.86
COc1ccc(-c2noc(CCC(=O)NCCN3CCc4ccccc4C3)n2)cc1	1	0.22
CCN(CC)c1ccc2cc(-c3nnc(-c4ccc(OC)cc4)o3)c(=O)oc2c1	0.95	-0.52
Cc1nc(N2CCCCC2C)c2c(C)c(C(=O)Nc3ccc(Oc4ccccc4)cc3)sc2n1 (centres undefined)	1	0.45
O=C(Nc1ccc(Cl)c(-c2nc3ccccc3o2)c1)c1ccc2ccccc2c1	1.1	0.73
COc1ccc(C2c3c(-c4ccccc4)n[nH]c3C(=O)N2c2ccccc2)cc1 (centres undefined)	0.38*	-7*
O=C(Nc1c(-c2ccc(F)cc2)nc2ccccn12)c1ccccc1F	1	0.53
COc1cccc(CNC(=O)C2CCCN(c3nn4c(=O)cc(C)nc4s3)C2)c1 (centres undefined)	1.1	0.77
COc1ccc(-c2[nH]c(-c3ccc(F)cc3)nc2SCC(=O)Nc2ccc3c(c2)OCCO3)cc1	1	-0.09
CCc1ccc(NC(=O)CSc2nccn2Cc2ccccc2)cc1	0.89	-4.2
CN(C)c1ccc(CNc2nc3ccccc3n2CCN2CCCCC2)cc1	0.67	-1.4

A different layout for some results above:
molecule | CBX7 AlphaScr | CBX7 AlphaScr z-score
O=C(Nc1c(-c2ccc(F)cc2)nc2ccccn12)c1ccccc1F | 1 | 0.53
COc1cccc(CNC(=O)C2CCCN(c3nn4c(=O)cc(C)nc4s3)C2)c1 (centres undefined) | 1.1 | 0.77
COc1ccc(-c2[nH]c(-c3ccc(F)cc3)nc2SCC(=O)Nc2ccc3c(c2)OCCO3)cc1 | 1 | -0.09

Random excerpt: 2 records from the list
SMILES	CBX7 AlphaScr	CBX7 AlphaScr z-score
Cc1ccn(-c2ccc3cc(-c4ccccc4)c(=O)oc3c2)n1	0.83	-2
COc1ccc(-c2[nH]c(-c3ccc(F)cc3)nc2SCC(=O)Nc2ccc3c(c2)OCCO3)cc1	1	-0.09

Additional entries follow.
SMILES	CBX7 AlphaScr	CBX7 AlphaScr z-score
O=C(CSc1nc(-c2ccccc2)c(-c2ccccc2)[nH]1)c1ccccc1	1	0.98
CN(C)c1ccc(-c2nc3cc(N)ccc3o2)cc1	1	0.28
CC(=O)N1CCc2cc(S(=O)(=O)N(C)c3ccc(Br)cc3)ccc21	0.85	-0.62
Brc1ccc(Cn2c(-c3cncs3)nc3ccccc32)cc1	1	0.48
Cc1ccc(C(=O)Nc2ccc(-c3nc4ncccc4o3)cc2)cc1	1	0.41
O=C(NC1CCCC1)c1cc(Nc2ccccc2)nc2ccccc12	0.96	-0.66
CC(C)CCSc1nnc(-c2c[nH]c3ccccc23)n1C	0.77	-2.2
CC(NC(=O)c1ccc2c(c1)NC(=O)c1ccccc1S2)C12CC3CC(CC(C3)C1)C2 (centres undefined)	0.96	-1.1
Cc1ccc(NC(=O)Cn2cc(S(=O)(=O)c3ccccc3)c(=O)c3ccccc32)cc1	1	0.12
CCN1CCN(C(=O)c2ccc3c(=O)n(C4CCCC4)c(=O)[nH]c3c2)CC1	0.96	-0.49
COc1cccc(OC)c1C(=O)N1CC(=O)Nc2ccc(C)cc2C1c1ccc(F)cc1 (centres undefined)	0.97	-0.48
CC1(C)CC(=O)c2sc(NC(=O)c3ccc(S(=O)(=O)N4CCCCC4)cc3)nc2C1	0.97	-0.72
CCOc1ccc(-c2cc(C(=O)NCc3cccnc3)c3ccccc3n2)cc1	1.2	1.2
CCOc1ccc(NC(=O)CN(c2ccc(OCC)cc2)S(=O)(=O)c2cccnc2)cc1	1.1	0.63
CCCCOc1ccc(C(O)(CCN2CCOCC2)c2ccccc2)cc1 (centres undefined)	0.83	-0.46
O=C(Nc1cc(C(F)(F)F)ccc1OCc1ccccc1)c1ccc(Br)cc1	1.2	5.6
Cc1ccc(OCC(O)Cn2c(=N)n(CCN3CCOCC3)c3ccccc32)cc1 (centres undefined)	1	0.037
CC1(C(=O)NC2CCCCCC2)CCC(=O)N1CCc1ccc(Cl)cc1 (centres undefined)	1	0.45
COc1cc(OC)c(NC(=O)c2cn(C)c(=O)c3cc(OC)c(OC)cc23)cc1Cl	0.99	-0.42
COc1ccc(-c2csc(-c3c[nH]c4ccccc34)n2)cc1C	0.91	-1
O=S(=O)(Nc1ccc(-c2csc(-c3ccccc3)n2)cc1)c1ccccc1	0.8	-8.1
O=C1CN(c2ccccc2)S(=O)(=O)c2ccccc2N1	1	0.074
Cc1oc(-c2ccc(Cl)cc2)nc1CN1CCC(C(=O)NCc2cccs2)CC1	1	1
COc1ccc(-c2cn3c4ccccc4n(CCN4CCOCC4)c3n2)cc1	0.66	-3.6
COCCCNC(=O)CCc1c(C)nc2cc(-c3cccc(F)c3)nn2c1C	0.99	-0.51

A draw from above in order of length of the SMILES, largest number first:
SMILES	CBX7 AlphaScr	CBX7 AlphaScr z-score
O=C(NCC1CCCO1)c1nn2c(c1Br)NC(c1cccs1)CC2C(F)(F)F (centres undefined)	1.2	1.5
O=C1CN(c2ccccc2)S(=O)(=O)c2ccccc2N1	1	0.074
CN(C)c1ccc(-c2nc3cc(N)ccc3o2)cc1	1	0.28

The listing continues.
SMILES	CBX7 AlphaScr	CBX7 AlphaScr z-score
COc1ccccc1C(O)(CCN1CCCCC1)c1ccccc1 (centres undefined)	1	0.82
COc1ccc(CCC(=O)Nc2ccc3nc(N4CCC(C)CC4)cc(C)c3c2)cc1	1.1	1.8
CC1CCN(CC(O)COc2cccc(F)c2)CC1 (centres undefined)	1	0.72
CCC(C)NC(=O)c1ccc2c(c1)N(Cc1ccccc1)C(=O)c1ccccc1S2(=O)=O (centres undefined)	1.2	2.9
COCCCNC(=O)CCc1c(C)nc2cc(-c3ccc(Cl)cc3)nn2c1C	1.1	1.6
O=C1CN(C(=O)CC2CCCCC2)C(c2ccc(F)cc2)c2cc(Cl)ccc2N1 (centres undefined)	0.93	-1.4
CCc1ccc(-c2cc(C(=O)Nc3nc4ccccc4[nH]3)c3ccccc3n2)cc1	0.98	-0.21
CCOCCCNC(=O)C(c1ccc(Cl)cc1)N1CCC2(CC1)OCCO2 (centres undefined)	1.1	2.8
Cc1ccccc1Cc1c(C)nc2ncnn2c1C	1	0.71
CCc1cccc(C)c1Nc1c(-c2ccc(N3CCOCC3)cc2)nc2ncccn12	0.92	-0.32
COc1cccc(-c2cn3cccc(N)c3n2)c1	1.1	1.1
CCOc1ccccc1NC(=O)CSc1nnc(Cc2cc(=O)[nH]c(=O)[nH]2)n1-c1ccc(F)cc1	1	0.68
COc1ccc(-c2csc(NC(=O)CCOc3ccccc3)n2)cc1	0.94	-2.2
CCOc1ccc(-n2cc(-c3ccccc3)c3c(NCCN4CCOCC4)ncnc32)cc1	0.85	-4.3
COc1ccccc1NC(=O)c1sc2ncn(CC(=O)N3CC(C)CC(C)C3)c(=O)c2c1C (centres undefined)	1	0.23
Cc1cc2cc(CCNS(=O)(=O)c3ccc(Cl)cc3)c(=O)[nH]c2cc1C	0.95	-1.3
CC1(C)CC(=O)c2sc(NC(=O)c3ccc(Oc4ccccc4)cc3)nc2C1	0.97	-0.78
CCCCCn1c(=O)[nH]c2cc(C(=O)N3CCC(C(N)=O)CC3)ccc2c1=O	0.97	-0.48
COc1ccc(-c2csc(N3CCSCC3)n2)cc1OC	0.51	-1.7
COc1ccc(-c2cn3c(C)c(C(=O)NC4CCCCC4)sc3n2)cc1	0.93	-1.3
CC(NC(=O)C1CCN(S(C)(=O)=O)CC1)c1ccccc1 (centres undefined)	1.1	1.5
Cc1ccc(Cn2nc(C)c(NC(=O)c3noc4c3CCCCC4)c2C)cc1	1	0.74
CCN(CC)CCNC(=O)c1sc2ncn(CC(=O)Nc3cccc(C(F)(F)F)c3)c(=O)c2c1C	1	0.66
COc1ccc(-n2nc3c(c2NC(C)=O)CSC3)cc1	1.1	1.2
COCCNC(=O)CCc1c(C)nc2cc(-c3ccc(Cl)cc3)nn2c1C	1.1	1.5

The listing continues:
SMILES	CBX7 AlphaScr	CBX7 AlphaScr z-score
Cc1cccc(NC(=O)c2ccccc2NC(=O)c2cccc(S(=O)(=O)N3CCOCC3)c2)c1	1	0.49
COc1cc2c(cc1OC)C(C(=O)N1CCCCC1)C(c1ccccc1F)N(C)C2=O (centres undefined)	1	0.56
CC(C)C(NS(=O)(=O)c1cccs1)C(=O)Nc1ccc(F)c(F)c1 (centres undefined)	1.1	2
O=C(Cc1cccc(C(F)(F)F)c1)Nc1ccc2nc3n(c(=O)c2c1)CCCCC3	0.99	-0.45
Cc1ccc(NC(=O)c2cnn(-c3ccccc3)c2C2CCN(C(=O)OC(C)(C)C)CC2)cc1F	0.94	-2.2
Cc1cccc(Cn2c(=O)n(CCCC(=O)NCc3ccc4c(c3)OCO4)c(=O)c3sccc32)c1	1	0.17
COC(=O)c1ccccc1NC1c2ccccc2C(=O)N1c1ccccn1 (centres undefined)	1	1.3
Cc1ccc(Nc2nnc(-c3ccc(C)c(S(N)(=O)=O)c3)c3ccccc23)cc1	1	0.53
Cc1nnc(SCC(=O)Nc2ccc3ccccc3c2)[nH]c1=O	1	0.0092
CCc1nnc(NC(=O)c2ccc(S(=O)(=O)N3CC(C)CC(C)C3)cc2)o1 (centres undefined)	0.7	-6.8
O=C(Cn1nc(Cc2cccnc2)c2ccccc2c1=O)Nc1ccc(F)cc1	1	0.08
Cc1cccc(-c2nc(CN3CCCC(C(=O)O)C3)c(C)o2)c1 (centres undefined)	1.1	3
c1ccc(-c2nc(SCc3cccc4ccccc34)[nH]c2-c2ccccc2)cc1	0.93	-0.29
CCn1c2ccccc2c2nnc(SCC(=O)Nc3cc(C)ccn3)nc21	0.87	-1.8
O=C1CSc2ccc(C(=O)NCCCN3CCC(Cc4ccccc4)CC3)cc2N1	0.87	-1.5
CC1C(O)CC(c2ccc(Cl)cc2)NC1c1ccc(Cl)cc1 (centres undefined)	0.96	-1.1
CCOC(=O)c1c(NC(=O)c2ccc(F)cc2)sc2c1CCC(CC)C2 (centres undefined)	1.7	9.4
CCCNC(=O)c1ccc2c(c1)N(Cc1ccc(C)cc1)C(=O)CS2	0.96	-0.93
CCn1cc(C(=O)N(C)c2ccccc2Cl)c2cc(OC)c(OC)cc2c1=O	1.2	1.7
CC1CCCN(C(=O)c2ccc3c(=O)n4c(nc3c2)CCCCC4)C1 (centres undefined)	1	0.04
COc1cccc(-c2nc(-c3ccccc3)c(-c3cc([N+](=O)[O-])ccc3C)[nH]2)c1	0.47*	-0.53*
COc1ccc(C(c2sc3nc(C)nn3c2O)N2CCc3ccccc3C2)cc1 (centres undefined)	0.96	-1.9
Cc1ccc(-c2nnc(Nc3ccc4c(c3)OCO4)c3ccccc23)cc1S(=O)(=O)NCC1CCCO1 (centres undefined)	0.78	-2.4
CC1CCCCN1CCNC(=O)CN1C(=O)COc2ccc(S(=O)(=O)N3CCOCC3)cc21 (centres undefined)	0.99	-0.35
Cc1c(C(=O)NCCCN2CCOCC2)sc2ncn(CC(=O)N3CCCCC3C)c(=O)c12 (centres undefined)	1	0.75

Remaining list, next part.
SMILES	CBX7 AlphaScr	CBX7 AlphaScr z-score
COc1ccc(OC)c(CN2CCN(Cc3ccc(OC)c(Br)c3)CC2)c1	0.72	-3.3
COCCNC(=O)c1cc2n(n1)C(C(F)(F)F)CC(c1ccc(F)cc1)N2 (centres undefined)	1.1	1.1
Cc1onc(-c2ccccc2)c1C(=O)N1CCN(c2ccc(OCc3ccccc3)cc2)CC1	0.72	-8.2
CCCCn1c(C(C)NC(=O)c2ccccc2)nc2ccccc21 (centres undefined)	0.96	-0.42
O=C(CN1C(=O)CSc2ncccc21)N1CCOCC1	1	0.23
O=C(Nc1ccc(Cl)c(Cl)c1)N(Cc1nnc2n1CCCCC2)c1ccccc1	0.91	-1.7
COc1ccc(NC(=O)c2c(NCc3cccs3)sc3c2CCC3)c(OC)c1	0.92	-1.6
